MT1-MMP act inh: inhibitors of human MT1-MMP activation | 0.061% of 360,000 active | HT1080 RFP-PRO-GFP cells, GFP/RFP ratio fluorescence, overnight; percent of plate control window, DMSO zero | P50281 | AID 651647 | GFP/RFP ratio change, % at 20 µM;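 active means GFP/RFP ratio change of at least 30% with cell ATP level not reduced by more than half and red fluorescence within 50% of control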; further: strong numbers were not always called active
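system = RFP-PRO-GFP reporter HT1080 cells | dosing = 20 µM single dose, 1% DMSO | timing = overnight cell settling, then overnight compound exposure, 37 °C, 5% CO2 | read-out basis = GFP/RFP fluorescence ratio | controls = DMSO and RFP-L50D-GFP cell wells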
Rce1 inh: inhibitors of yeast Ras-converting enzyme; yeast membranes, quenched prenylated peptide cleavage fluorescence; 0.27% of 290,000 active; Q03530; calls only;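 active means fall in fluorescence gain of 50% or more versus controls, with final raw signal at or below 3038400; inconclusive means same 50% fall but final raw signal above 3038400; inactive means fall in fluorescence gain under 50%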;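 further: plate controls were neutral control wells for no effect and wells lacking membranes for full effect; tested at 10 µM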
Target sequence (Q03530 whole entry, looked up): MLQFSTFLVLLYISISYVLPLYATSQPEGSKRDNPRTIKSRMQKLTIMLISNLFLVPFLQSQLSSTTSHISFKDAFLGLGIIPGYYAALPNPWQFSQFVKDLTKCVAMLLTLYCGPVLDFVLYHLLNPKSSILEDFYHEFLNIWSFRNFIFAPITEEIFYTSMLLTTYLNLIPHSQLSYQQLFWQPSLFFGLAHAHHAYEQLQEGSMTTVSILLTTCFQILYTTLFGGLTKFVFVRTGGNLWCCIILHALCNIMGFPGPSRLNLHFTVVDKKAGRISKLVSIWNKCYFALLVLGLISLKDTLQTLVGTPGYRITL
eIF4H FP inh: inhibitors of RNA binding by human eIF4H; eIF4H fluorescence polarization binding assay; inhibition, % at 35 µM; 0.94% of 290,000 active;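 active means 50% or more with normal probe brightness, or confirmed in later tests; inconclusive means above 50% with abnormal brightness, or retests that disagree; inactive means below 50% or failed in later tests; about a fifth of its hits are not listed in these tables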;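 further: calls also rest on retests at 20 µM and on dose response follow-up; 0% = protein and probe with vehicle and 100% = probe without protein; strong numbers were not always called active; many hits fall short of the cut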
UUG fidelity: yeast start codon fidelity modulation | S. cerevisiae UUG-firefly luciferase reporter, luminescence/redox ratio | activity score, % at 18.7 µM | 0.13% of 350,000 active | AID 602363;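 active means replicate mean at a twofold rise or more, about +100% in these data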;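 further: firefly luciferase made from a UUG start codon reports start codon fidelity; reporter light over untreated wells divided by growth signal over untreated wells; some hits fall short of that in this replicate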
Env fusion inh: inhibitors of HIV Env-mediated cell fusion; HeLa-JRFL Env/CEM21 cell fusion, luciferase; 1.1% of 360,000 active; inhibition, % at 12.3 µM;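 active means mean replicate inhibition score of at least 50 and every replicate individually at or above 50; inconclusive means only one of the two criteria met; inactive means mean below 50 and not all replicates reaching 50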;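 further: 0% = plate neutral controls and 100% = maraviroc near 300 nM; one replicate is shown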
CSC inhib: cancer stem cell inhibition. inhibition, % at 7.5 µM. 1.1% of 300,000 active. cancer stem cell-like cells viability, luminescence;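 active means mean at 75% or more and at least half the replicates too; inconclusive means mean and replicates disagree; tested in HMLE shEcad cells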;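 further: 0% = median of negative and 100% = median of positive control wells; the first replicate is given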
PABP polyA inh: blocks human PABP binding to poly(A) RNA | inhibition, % at 35 µM | P11940 | 1% of 290,000 active | fluorescence polarization;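 active means 50% or more with normal probe brightness, or confirmed in later tests; inconclusive means above 50% with abnormal brightness, or retests that disagree; inactive means below 50% or failed in later tests; about a fifth of its hits are not listed in these tables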;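 further: calls also rest on retests at 20 µM and on dose response follow-up; controls were probe without protein and protein plus probe with vehicle; some compounds called inactive have numbers as strong as hits; many hits fall short of the cut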
Target sequence (P11940 whole entry, looked up): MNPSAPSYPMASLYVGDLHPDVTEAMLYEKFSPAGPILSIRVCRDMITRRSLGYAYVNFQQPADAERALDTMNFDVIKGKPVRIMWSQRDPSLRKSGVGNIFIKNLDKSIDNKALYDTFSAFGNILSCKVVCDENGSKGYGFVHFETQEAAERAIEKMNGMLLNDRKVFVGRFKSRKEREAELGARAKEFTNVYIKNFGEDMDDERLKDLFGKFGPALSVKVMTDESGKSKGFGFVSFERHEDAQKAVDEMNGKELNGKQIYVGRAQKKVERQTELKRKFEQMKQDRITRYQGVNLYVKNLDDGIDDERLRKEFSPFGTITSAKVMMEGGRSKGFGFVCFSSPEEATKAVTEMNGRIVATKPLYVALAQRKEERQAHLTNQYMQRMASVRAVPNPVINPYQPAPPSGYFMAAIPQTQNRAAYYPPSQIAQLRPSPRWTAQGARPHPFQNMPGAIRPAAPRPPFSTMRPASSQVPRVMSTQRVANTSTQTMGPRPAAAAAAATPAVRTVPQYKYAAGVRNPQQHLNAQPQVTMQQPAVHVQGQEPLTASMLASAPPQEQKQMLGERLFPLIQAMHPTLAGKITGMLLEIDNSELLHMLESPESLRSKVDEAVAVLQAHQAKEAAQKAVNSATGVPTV
eIF4H FP inh retest: also measured in eIF4H FP inh; calls as there; inhibition, %; compound at 20 µM; confirmation average;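 mean of two retest wells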
PABP polyA inh retest: also measured in PABP polyA inh; calls as there; inhibition, %; compound at 20 µM; confirmation repeats;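 mean of two retest wells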
MT1-MMP act inh RFP: second read-out of MT1-MMP act inh, no call of its own (marks repeat the call); RFP signal change, %; measured here: RFP expression control read;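 0 = vehicle wells; hits needed this value within 50% of zero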
* marks the source's active call; other numbers are inactive results; i = inactive; ? = inconclusive; . = no result given.

SMILES | MT1-MMP act inh | MT1-MMP act inh RFP | Rce1 inh | eIF4H FP inh | UUG fidelity | Env fusion inh | CSC inhib | PABP polyA inh | others
Cc1ccc(OCCN(C)C(=O)C2CCC(=O)N(CCCN3CCCC3=O)C2)cc1 (stereo unspecified) | 3 | 6 | i | -11 | -13 | -3 | 1 | 0
COc1ccc(N(Cc2cc3ccc(C)cc3[nH]c2=O)S(=O)(=O)c2ccccc2)cc1 | 0 | -4 | i | -2 | -7 | . | 45 | 2
O=C(C1CC1)N1CCC(C(O)(c2ccccc2)c2ccccc2)CC1 | 5 | -1 | i | 4 | -15 | 6 | -19 | 1
O=C(CN(Cc1ccccc1)C(=O)CCC(=O)Nc1nccs1)NCc1ccco1 | -1 | 2 | i | 3 | -18 | . | -6 | 7
COc1cccc(/C=N/N2CCN(c3ccncc3S(=O)(=O)N3CCCCC3)CC2)c1 | 5 | 7 | i | -1 | . | 21 | -7 | 18
CCOc1ccccc1NC(=O)C1C(c2ccccc2)C1(Cl)Cl (stereo unspecified) | -5 | -3 | . | . | -6 | 8 | . | .
OC(COCc1ccccc1)CN1CCN(Cc2ccc3c(c2)OCO3)CC1 (stereo unspecified) | 1 | 5 | i | -1 | 1 | -4 | . | -2
Cc1ccsc1/C=N/NC(=O)CN1CCN(Cc2ccccc2)CC1 | 2 | 2 | i | ? | . | 3 | -6 | ?
Cc1ccc(N=C(NO)c2nonc2N)c(C)c1 | -8 | -5 | i | -2 | . | 7 | -13 | -4
CN(Cc1ccccc1)C(=O)CN(c1ccc(F)cc1)S(=O)(=O)c1ccc2c(c1)OCCO2 | -3 | -7 | i | 6 | -2 | . | 7 | 2
Cc1ccc(C)c(NC(=O)CSc2nnc(CCCCCNC(=O)OC(C)(C)C)o2)c1 | -1 | -10 | i | 10 | -4 | -4 | 2 | 3
CCCC(=O)NCCCc1nc2ccccc2n1C(C)C | 7 | 7 | i | -3 | -11 | -18 | -7 | 8
O=C(Nc1ccccc1Cl)N1CCN(c2ccc3nnc(-c4ccccc4)n3n2)CC1 | 1 | -4 | i | -8 | -3 | . | -2 | -4
Cc1ccc(CN2C(=O)CCC2C(=O)N2CCN(c3ccc(F)cc3)CC2)cc1 (stereo unspecified) | 4 | 2 | i | 1 | 7 | . | 10 | -11
COc1ccc(NC(=O)Cn2nnc(C(=O)Nc3ccc(F)c(Cl)c3)c2N)cc1OC | . | . | i | -4 | -24 | 4 | -5 | -2
O=C(NCc1nnc(SCc2ccc(F)cc2)n1-c1ccccc1)C12CC3CC(CC(C3)C1)C2 | -5 | -12 | i | -3 | . | 32 | 21 | 20
CCc1ccccc1N(C(=O)c1snc(C(N)=O)c1N)C(C(=O)NCC1CCCO1)c1ccc(N(C)C)cc1 (stereo unspecified) | -4 | -1 | i | -12 | 5 | 14 | . | -1
Cc1ccc(S(=O)(=O)N2C[C@H]3C(=O)C[C@@H]4C(=O)N(c5ccccc5)C(=O)[C@@H]4[C@@H]3C[C@H]2c2cccc(Cl)c2)cc1 | 6 | 3 | . | . | -10 | -42 | . | .
Cc1ccc(N2C(=O)N(c3ccc(C)cc3)C3CS(=O)(=O)CC32)cc1 (stereo unspecified) | 0 | 2 | i | -7 | 0 | -15 | 7 | 0
CCOC(=O)c1c(NC(=O)CSc2ncnc3ccccc23)sc(C(C)=O)c1C | -8 | -10 | i | 2 | . | -15 | 44 | -3
O=C(N=C1SC2CS(=O)(=O)CC2N1c1ccc(F)c(Cl)c1)C1CCCO1 (stereo unspecified) | -1 | 3 | i | . | 2 | 1 | 0 | .
Cc1[nH]c(=O)[nH]c(=O)c1S(=O)(=O)N1CCCC(C(=O)NCCC2=CCCCC2)C1 (stereo unspecified) | 2 | 4 | i | -5 | . | 3 | -15 | -3
Cc1cccc(NC(=O)CN2CCN(C(=O)c3cncn3-c3ccc(F)cc3)CC2)c1C | 7 | 5 | . | . | -12 | -7 | 5 | .
O=P(c1ccccc1)(c1ccccc1)C1CCCO1 (stereo unspecified) | 2 | 0 | i | -8 | -12 | -3 | -10 | 0
CCC(=O)c1ccc(OCC(O)CN2CCc3ccccc3C2)cc1 (stereo unspecified) | 0 | -3 | . | -2 | -8 | -18 | -13 | 0
C=C(C)CC(NCCc1ccccc1)c1ccco1 (stereo unspecified) | 0 | 4 | i | 4 | . | -18 | . | -4
COc1cccc(-c2csc(N3CCN(C(=S)Nc4ccccc4)CC3)n2)c1 | -4 | -5 | i | 16 | . | 16 | -6 | -9
Cc1c2cnn(CC(=O)O)c(=O)c2c(C)n1Cc1ccccc1 | -4 | 6 | i | -5 | -11 | -37 | -10 | 13
CC(=O)Oc1cccc(C2=CC(=O)CC(C)(C)C2=O)c1 | 3 | 4 | . | . | 14 | 2 | . | .
COC(=O)[C@@]12CCCCN1[C@H](c1ccc(-c3ccc(OC)cc3)cc1)[C@H]1C(=O)N(C)C(=O)[C@H]12 | 0 | -8 | i | . | -13 | 29 | 27 | .

The closing four compounds of the part above come first, to join the parts:
SMILES | MT1-MMP act inh | MT1-MMP act inh RFP | Rce1 inh | eIF4H FP inh | UUG fidelity | Env fusion inh | CSC inhib | PABP polyA inh | others
COc1cccc(-c2csc(N3CCN(C(=S)Nc4ccccc4)CC3)n2)c1 | -4 | -5 | i | 16 | . | 16 | -6 | -9
Cc1c2cnn(CC(=O)O)c(=O)c2c(C)n1Cc1ccccc1 | -4 | 6 | i | -5 | -11 | -37 | -10 | 13
CC(=O)Oc1cccc(C2=CC(=O)CC(C)(C)C2=O)c1 | 3 | 4 | . | . | 14 | 2 | . | .
COC(=O)[C@@]12CCCCN1[C@H](c1ccc(-c3ccc(OC)cc3)cc1)[C@H]1C(=O)N(C)C(=O)[C@H]12 | 0 | -8 | i | . | -13 | 29 | 27 | .
COc1ccc(N(CC(=O)Nc2ccc(Cl)cc2)S(=O)(=O)c2c(C)n[nH]c2C)cc1 | -1 | -1 | i | -2 | -15 | 2 | -26 | 1
CC/C(=N\NC(=O)C(N)=O)c1ccccc1O | 1 | -4 | i | 1 | -5 | -17 | . | 5
Cc1c(/N=C/c2ccco2)n(Cc2ccccc2)c2ccccc12 | 1 | 6 | i | -2 | . | -62 | -1 | -5
Cc1ccc(-c2cc(C(=O)N3CCOCC3)c3ccccc3n2)cc1 | -6 | -1 | i | -4 | 6 | -17 | -9 | -2
O=C(CCNC(=O)OCc1ccccc1)NC1CCCCC1 | 1 | 5 | i | -2 | -6 | -9 | -8 | -2
CC(=O)N(C)c1ccc(N=NC2C(=O)N(C(N)=S)N=C2C)cc1 (stereo unspecified) | 7 | 6 | i | -8 | -23 | -23 | -9 | -2
Cc1ccc2c(Cl)c(C)c(N3CCCCC3)nc2n1 | 1 | 4 | i | -1 | . | -33 | -9 | 9
C/C(=N\NC(=O)c1ccc2c(c1)OCCO2)c1ccccc1 | -1 | 3 | i | -2 | -2 | -20 | 24 | 5
O=C1NC(c2ccccc2O)Nc2ccccc21 (stereo unspecified) | -2 | -5 | i | 8 | -8 | -1 | 8 | 11
Cc1ccccc1OC(=O)CCC(=O)OCCCC(F)(F)C(F)(F)F | 1 | 3 | i | -8 | -15 | . | -4 | 4
Cc1ccc(C(C)NC(=S)NC2CCCCC2)c(C)c1 (stereo unspecified) | 2 | -12 | i | 1 | -32 | -5 | 7 | 9
Cc1ccc(S(=O)(=O)N(C)C)cc1NC(=S)NC12CC3CC(CC(C3)C1)C2 | 1 | -5 | i | -7 | . | -2 | . | 9
O=C(NCc1ccccc1)C(c1ccccc1)N(Cc1ccc2c(c1)OCO2)C(=O)Cc1cccs1 (stereo unspecified) | -19 | -19 | i | 7 | . | . | 11 | 6
C[C@H](NC(=O)Nc1cccc(C(F)(F)F)c1)C(=O)O | 7 | 5 | i | -3 | . | 7 | . | 9
OC(COC(c1ccccc1)c1ccccc1)CN1CCN(c2cccc(Cl)c2)CC1 (stereo unspecified) | 2 | -1 | i | 5 | 18 | 11 | 65 | 12
COc1ccccc1CCc1nnc(CCC(=O)NCCC2CCCCO2)o1 (stereo unspecified) | 0 | 0 | . | . | -8 | -1 | . | .
CCOC(=O)N1CCN(C(=O)CSc2nnc(COc3ccccc3)o2)CC1 | -4 | -2 | i | -3 | 1 | 19 | -1 | -18
COc1ccc(C(CC(=O)N2CCOCC2)c2c(OC)cc(OC)c3c(-c4ccccc4)cc(=O)oc23)cc1 (stereo unspecified) | 1 | 0 | i | 93* | -4 | 22 | -2 | 52*
CCN(c1ccccc1)S(=O)(=O)c1cc(C(=O)Nc2ccc(Br)cc2)ccc1F | 0 | -23 | i | -12 | . | 46 | 19 | -1
O=C(c1ccco1)N1CCN(C(=O)c2ccccc2[N+](=O)[O-])CC1 | 0 | 3 | i | 0 | . | 10 | 1 | 0
C=CCNC(=O)/C(C#N)=C\c1cc(Cl)c(O)c(OCC)c1 | -41 | 5 | i | -5 | -13 | -21 | 6 | -2
COc1ccc(Cl)cc1NC(=O)CN1C(=O)CSC1=O | -2 | -3 | i | 5 | -12 | -53 | -12 | 3
CCCC(C)C(=O)Nc1cc([N+](=O)[O-])ccc1F (stereo unspecified) | 2 | 3 | i | 4 | -11 | -7 | . | 1
CCOc1ccc(/C=N/NC(=O)c2ccccc2C)cc1CN1CC2CC(C1)c1cccc(=O)n1C2 (stereo unspecified) | -4 | 1 | . | . | -5 | . | -14 | .
Cc1c(C(=O)OCC(=O)NCc2ccco2)cccc1[N+](=O)[O-] | -2 | 4 | . | . | 6 | -17 | -3 | .
Cc1cc(/C=C2/NC(=O)NC2=O)c(C)n1C | 2 | 3 | i | 68 | . | 5 | -5 | 127 | eIF4H FP inh retest=16;PABP polyA inh retest=18
Cn1ccc(/C=N/N=C2/NC(=O)CS2)n1 | -1 | 5 | i | -2 | -4 | -21 | -2 | -14
Cc1ccc(C)c(Cc2c(C)nc3c(C(=O)NCc4ccc5c(c4)OCO5)cnn3c2C)c1 | . | . | i | -2 | . | . | 78* | 5
Cc1cc(OCC(=O)Nc2ccc(Br)cc2)cc2c1C(=O)CC(C)(C)O2 | 6 | -14 | i | -7 | -5 | 39 | 3 | -3
Cc1cccc(NC(=O)NC2CCCc3ccccc32)c1 (stereo unspecified) | -10 | -5 | i | -6 | -10 | -11 | 3 | -10
COCC(=O)OC/C(O)=C(\C#N)c1nc2ccccc2[nH]1 | -13 | -4 | i | 7 | -18 | -2 | -7 | 15
O=C(c1cccc(S(=O)(=O)N2CCN(c3ccccc3)CC2)c1)N1CCN(c2ccccc2O)CC1 | -1 | -9 | i | . | -23 | 2 | -3 | .
Cc1ccc(C(=O)C2CCN(CC(=O)NC3CCCCC3)CC2)cc1 | 0 | -1 | i | -8 | -9 | 27 | -4 | -7
COc1ccccc1N1CCN(C(=O)CSc2nc(C)c(C)c(=O)[nH]2)CC1 | 2 | 1 | i | -4 | . | 2 | 12 | -4
O=C(O)c1cccc(S(=O)(=O)N(Cc2ccccc2)c2ccccc2Cl)c1 | -1 | -2 | i | -8 | -6 | -3 | 4 | -4
OCCN(Cc1ccccc1)Cc1cccc(C(F)(F)F)c1 | 2 | 2 | . | 1 | . | . | -8 | 10
CCN(Cc1ccccc1)C(=O)c1c(-c2ccccc2Cl)noc1C | 3 | 1 | i | -6 | 6 | 16 | -11 | -6
Cc1ccc(NC(=O)c2cc([N+](=O)[O-])ccc2Cl)c(O)c1 | -5 | -2 | i | 6 | 6 | 2 | 17 | 6

Source: PubChem (several laboratories)

The list is partial (hit frequency here may not be typical).
